NPR1 antag: Natriuretic polypeptide receptor (hNpr1) antagonism - Primary qHTS; Atrial natriuretic peptide receptor 1 (Homo sapiens), P16066; HEK293 hNpr1 GloSensor cGMP, ANP-stimulated luminescence; Potency, µM (highest dose often 46.3 µM), for inactives: at the top dose activity change, negative = inhibition, most hits filed as inhibitors; 1.6% of 76,000 active; active = well fitted inhibition curve with a large enough effect; inconclusive = small, poorly fitted or top-dose-only effect; inactive = no such curve, though single readings can be large or run the other way;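 further: nearly all actives have a fitted effect of over 60% in size; nearly all hits also lower the signal before the agonist is added; a reference antagonist and vehicle were the controls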
Target sequence (P16066 whole entry, looked up): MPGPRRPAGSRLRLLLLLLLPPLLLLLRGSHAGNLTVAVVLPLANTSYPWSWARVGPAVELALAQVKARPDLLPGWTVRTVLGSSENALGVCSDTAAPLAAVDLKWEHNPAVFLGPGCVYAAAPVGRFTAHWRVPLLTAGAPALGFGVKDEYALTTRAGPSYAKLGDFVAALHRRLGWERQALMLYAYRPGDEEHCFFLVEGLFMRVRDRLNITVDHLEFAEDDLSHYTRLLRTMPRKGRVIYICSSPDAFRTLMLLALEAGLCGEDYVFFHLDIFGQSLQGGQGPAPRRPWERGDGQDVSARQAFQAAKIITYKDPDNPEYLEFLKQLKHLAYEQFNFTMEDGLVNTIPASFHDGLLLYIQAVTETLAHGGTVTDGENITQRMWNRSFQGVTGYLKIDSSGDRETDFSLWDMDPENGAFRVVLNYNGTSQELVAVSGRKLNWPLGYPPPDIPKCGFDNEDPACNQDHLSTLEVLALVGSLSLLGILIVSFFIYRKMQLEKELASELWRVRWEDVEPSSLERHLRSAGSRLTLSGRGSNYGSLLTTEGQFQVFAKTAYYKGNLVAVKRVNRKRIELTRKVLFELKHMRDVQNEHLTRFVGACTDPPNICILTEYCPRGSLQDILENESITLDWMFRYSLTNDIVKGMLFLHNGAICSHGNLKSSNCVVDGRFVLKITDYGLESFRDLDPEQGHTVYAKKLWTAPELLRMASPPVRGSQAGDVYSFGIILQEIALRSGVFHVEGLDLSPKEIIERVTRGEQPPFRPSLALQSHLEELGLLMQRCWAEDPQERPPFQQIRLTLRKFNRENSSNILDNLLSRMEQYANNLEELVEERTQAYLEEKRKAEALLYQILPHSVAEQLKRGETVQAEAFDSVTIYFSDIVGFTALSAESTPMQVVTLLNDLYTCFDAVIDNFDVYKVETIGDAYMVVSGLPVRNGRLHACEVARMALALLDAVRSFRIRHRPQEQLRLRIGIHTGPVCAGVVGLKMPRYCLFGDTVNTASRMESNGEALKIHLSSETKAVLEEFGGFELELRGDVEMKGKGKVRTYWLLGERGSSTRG
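HEK293 cells stably expressing human Npr1 and cGMP GloSensor pGS-40F, loaded 2 h with 2% GloSensor reagent, given compound 30 min at room temperature. Luminescence read before and 20 min after 0.1 nM hNppA.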
Starred values were filed as active, the others as inactive; ? = inconclusive; [ ] = dose if it differs, or a comment. On the % scale 0 is the no-effect control and ±100 the full control effect; potency means the concentration at half of the fitted maximal effect. Only part of the results is shown. The share of hits here may be higher or lower than overall.

SMILES | NPR1 antag
COc1ccc(NC(=O)NCC2CCCN(C(C)C)C2)cc1OC (stereo unspecified) | 9.3%
Cc1ccc(C2Cn3nnc(-c4noc(-c5ccc[nH]5)n4)c3CO2)cc1 (stereo unspecified) | -3.8%
CCOc1cccc(CNC(=O)C2CCCCC(=O)N2C)c1 (stereo unspecified) | 0.0%
O=C1CC(c2ccccc2)N(Cc2ccncc2)CCCN(C(=O)CN2CCCC2=O)CCN1 (stereo unspecified) | 3.8%
CN1[C@@H](CCC(=O)NCc2cccs2)CNC(=O)[C@H]2NCC[C@H]21 | 3.4%[70.6 µM]
Cn1cccc1C(=O)N1CC(c2noc(COc3ccccc3)n2)C1 | -9.6%
CN1CCC(OC2CCN(C(=O)c3cccc(C(F)(F)F)c3)CC2)CC1 | -2.0%
CN(Cc1ccsc1)c1cc(C2CC(O)C2)ncn1 (stereo unspecified) | -5.8%
O=C(c1ccc2ncccc2c1)N1CCCN(c2cc(-c3ccc(Cl)cc3)[nH]n2)CC1 | ?
CS(=O)(=O)N1CCNC[C@@H]1C(=O)N[C@@H](CC1CCCCC1)C(N)=O | 3.3%[70.6 µM]
CN1C(=O)C2(CCN(Cc3ccccc3)C2)c2ccccc21 (stereo unspecified) | 0.0%[70.6 µM]
Cc1ccc(C2=NC3(CCN(C(=O)Cc4cccs4)CC3)ON2)cc1 | -1.5%
C[S+](=O)([O-])Nc1cccc(N2C[C@@H]3C(C(=O)NC4CCOCC4)=NO[C@@H]3C2)c1 | -0.7%[70.6 µM]
Cc1nc(-c2c3n(c(=O)n(Cc4ccc(F)c(F)c4)c2=O)CCCCC3)no1 | 3.9%
CCCn1cnc2c1CN(S(=O)(=O)c1ccc(C#N)cc1)[C@H](C(=O)OC)C2 | 0.0%[70.6 µM]
CCOC(=O)C1CCCN(C(=O)CC(c2ccc3c(c2)OCO3)c2cn(CC)c3ccccc23)C1 (stereo unspecified) | -15.0%
CS(=O)(=O)CC(O)c1cc2n(n1)CCN(CCOCc1ccccc1)C2 (stereo unspecified) | 1.4%
O=[S+]([O-])(Nc1ccccc1)c1ccc2c(c1)OCCN(Cc1cccs1)C2 | ?
CC(=O)N1CCCCC12Cc1ccccc1NC2=O (stereo unspecified) | 10.0%[70.6 µM]
CCOc1ccccc1CN1C(=O)C2(CCOCC2)CC1c1nnnn1C(C)(C)C (stereo unspecified) | -14.5%

Structures listed so far with fluorine:
SMILES | NPR1 antag
CN1CCC(OC2CCN(C(=O)c3cccc(C(F)(F)F)c3)CC2)CC1 | -2.0%
Cc1nc(-c2c3n(c(=O)n(Cc4ccc(F)c(F)c4)c2=O)CCCCC3)no1 | 3.9%

A different layout for 7 compounds above:
NPR1 antag	molecule
1.4%	CS(=O)(=O)CC(O)c1cc2n(n1)CCN(CCOCc1ccccc1)C2 (stereo unspecified)
0.0%[70.6 µM]	CN1C(=O)C2(CCN(Cc3ccccc3)C2)c2ccccc21 (stereo unspecified)
?	O=C(c1ccc2ncccc2c1)N1CCCN(c2cc(-c3ccc(Cl)cc3)[nH]n2)CC1
-9.6%	Cn1cccc1C(=O)N1CC(c2noc(COc3ccccc3)n2)C1
-3.8%	Cc1ccc(C2Cn3nnc(-c4noc(-c5ccc[nH]5)n4)c3CO2)cc1 (stereo unspecified)
-14.5%	CCOc1ccccc1CN1C(=O)C2(CCOCC2)CC1c1nnnn1C(C)(C)C (stereo unspecified)
3.4%[70.6 µM]	CN1[C@@H](CCC(=O)NCc2cccs2)CNC(=O)[C@H]2NCC[C@H]21

Further compounds follow.
SMILES | NPR1 antag
COC(=O)c1sccc1NC(=O)N1CCCC1c1noc(COc2ccc(F)cc2)n1 (stereo unspecified) | 0.0%
CC(C)SCC(=O)N1CCC2(CC1)CC(c1ccccc1)C(=O)N2C (stereo unspecified) | -0.1%
O=C1CCC2(CCCN(c3ncccc3F)C2)CN1Cc1ccncc1 (stereo unspecified) | 3.0%
O=C(NCCCN1Cc2ccccc2C1)c1cccc(C2CCCNC2)c1 (stereo unspecified) | 0.7%
CCC(=O)N1CCC(CC(=O)N2CCOCC2)C1 (stereo unspecified) | 1.7%
Cc1ccccc1N1Cc2c(NCc3cccnc3)ncnc2N(C)CC1=O | 0.9%
CCn1ncc(N2CCC(NC(=O)c3cccc(N(C)C)c3)CC2)cc1=O | -3.3%
COc1cccc(C(=O)N2CCC(CC(=O)NCc3ccccc3)C2)c1OC (stereo unspecified) | 4.6%
CN(C)C[C@@H]1CN(c2ncccn2)C[C@H]1NC(=O)Cc1ccc(F)cc1 | 10.0%
Cc1cccnc1C(C)n1cc(-c2ccccc2-c2ccco2)nn1 (stereo unspecified) | 6.5%
O=C(c1ccco1)N1CCC2(CC1)CC(N(Cc1ccccc1)C1CC1)CCO2 (stereo unspecified) | 5.8%
Cc1ncsc1C(=O)N1CC(CNC(=O)Cc2ccccc2)C2(C1)CN(c1ccccc1)C2 (stereo unspecified) | 3.5%
Cc1cccc(OCC2(CNCc3ccc(F)cc3)C[C@@H](O)[C@@H](O)C2)n1 (stereo partly specified) | -7.4%[70.6 µM]
C=CCN1CCN(C(=O)c2c(C)oc3c2CN(Cc2ccc(F)cc2)CC3)CC1 | 0.4%
COc1ccc(C(=O)N2CCC3(CC2)N=C(c2ccc(Cl)cc2)NO3)cc1F | 10µM*
O=C(O)c1ccc(C2CCCN(C(=O)CCN3CCOCC3)C2)cc1 (stereo unspecified) | 4.5%
COc1ccc(-c2nc(N3CCOC[C@H]3C)cc3c2CN(C(C)C)C3=O)cc1 | 2.8%[70.6 µM]
O=C(NC1CC1)c1ccccc1OCC1CCCN(Cc2ccc3c(c2)CCO3)C1 (stereo unspecified) | -11.2%
O=C(Nc1ccc([C@@H](O)[C@H]2COCC(=O)N2Cc2ccccn2)cc1)c1ccccc1 | 2.5%[70.6 µM]
O=C(O)c1ccc(CN2Cc3[nH]cnc3C[C@H]2c2nc(-c3ccncc3)no2)cc1 | 4.8%[70.6 µM]
Cc1ccc(-c2noc([C@@H]3C[C@H](NC(=O)Nc4cccc(F)c4)CN3C)n2)cc1 | ?
Cc1nc2c(c(-c3ccc(O)cc3)n1)CN(Cc1cncs1)CCC2 | -1.6%
CC[C@H]1CN(C(=O)Nc2cccc(OC)c2)CC[C@H]1CC(=O)N1CCC(C(=O)OC)CC1 | 3.0%
O=C(c1cc2n(n1)CC(c1ccc(Cl)cc1)OC2)N1CCN(c2ccc(F)cc2)CC1 (stereo unspecified) | ?
CN(Cc1ccccn1)C(=O)CC(c1cccc(O)c1)c1ccccc1Cl (stereo unspecified) | -6.8%
CNC(=O)[C@@H]1CN(C(=O)C2(c3ccc(OC)cc3)CC2)C[C@H]1CO | -6.7%
CCn1c(CO)nnc1C1CC(NC(=O)c2nn(C)c(C)c2Cl)C1 (stereo unspecified) | -0.7%
CC(=O)N1CCCCCC1c1nc(-c2ccncc2)no1 (stereo unspecified) | 0.9%
CCCn1c(C)cnc1CCNC(=O)CC1CCN(C(C)=O)CC1 | 8.3%
CCC1Oc2ccc(NC(=O)c3ccccc3F)cc2CN(CCc2ccc(OC)c(OC)c2)C1=O (stereo unspecified) | -1.4%
Cc1noc([C@@H]2CN(C(=O)c3c[nH]c4ccccc34)C[C@H]2CO)n1 | 4.8%
COc1ccccc1CN1CCC2(CC1)OC(=O)N(Cc1ccc(NC(C)=O)cc1)C2(C)c1ccccc1 (stereo unspecified) | -5.8%
COc1ncccc1-c1cnc2[nH]cc(CC(=O)Nc3cccnc3)c2c1 | ?
Cc1nc(N)ncc1C(=O)N(C)Cc1cn[nH]c1-c1ccccc1 | 3.2%
Cn1cc(CNC(=O)C[C@@H]2C[C@H]3O[C@H](CNCc4cnccc4C(F)(F)F)[C@@H](O)[C@H]3O2)cn1 | 7.8%
O=C(NC1CCN(c2ccc(F)cc2)C1=O)c1ccccc1C(F)(F)F (stereo unspecified) | 1.3%
CN(Cc1cccc2cnccc12)C(=O)c1cn(Cc2ccccc2F)nn1 | -27.1%
CS(=O)(=O)c1ccc(CNC[C@H]2Cn3ccnc3CO2)cc1 | 11.2%[70.6 µM]
O[C@H]1[C@H](NCc2ccccn2)[C@H]2CO[C@H](O2)[C@@H]1N1CCC(Cc2ccccc2)CC1 | -3.4%[70.6 µM]
O=C(Nc1cccc(-c2nnc3n2CCCC3)c1)c1ccccc1 | -1.9%
CCN1C(=O)CCN(Cc2cccc(OC(F)(F)F)c2)CC12CCOCC2 | 3.7%
CCCc1ncncc1C(=O)N1C[C@@H](C)[C@](O)(C2CC2)C1 | 21.0%
COc1ccc(CNC(=O)C2CC(=O)N(c3n[nH]c4cccc(F)c34)C2)cc1OC (stereo unspecified) | 4.5%
Cc1cnc(C2CCOCC2)n1C1CCCNC1 (stereo unspecified) | 4.2%
Cc1ccc(CCNC(=O)c2cc3c(N4CCCC4)nc(C)cn3n2)cc1 | 4.0%
CCCC(=O)NC1CCN(c2ccc(C)cc2)C1=O (stereo unspecified) | -2.8%
N[C@H]1CCN2C(=O)c3cc(-c4ccc5c(c4)OCO5)ccc3NC(=O)[C@H]12 | 1.5%[70.6 µM]
Cc1ccccc1CN1CCN(C(=O)CN2CCCC2=O)CC(O)C1 (stereo unspecified) | -2.8%
O=C(CCCc1ccccc1)N1C[C@@H](CN2CCOCC2)[C@@H](CO)C1 | -22.1%
O=C(C1CC(=O)N(C2CC2)C1)N1CCC(Oc2ccccc2Cl)CC1 (stereo unspecified) | -16.6%
COc1cccc(-c2cc3c(=O)n(CCNC(=O)COc4cccc(C)c4)ccn3n2)c1 | ?
O=C(C[C@@H]1C[C@H]2O[C@H](CNCc3ccccc3C(F)(F)F)[C@@H](O)[C@H]2O1)N1CCOCC1 | 5.0%
CN1C(=O)CCCCC1C(=O)NCc1ccc(Cl)cc1 (stereo unspecified) | 3.5%
O=C(C1CC1)N1CCC(Oc2ccccc2)C1 (stereo unspecified) | -7.6%
O=C1Nc2ccccc2CC12CCN2Cc1ccc(C(F)(F)F)cc1 (stereo unspecified) | -3.5%
O=S(=O)(NCC1(COc2cnccn2)C[C@@H](O)[C@@H](O)C1)c1ccc(Cl)cc1 (stereo partly specified) | 0.7%
CCn1ccc(C(=O)N2CC(Oc3ccc(-c4nc(C)no4)cc3)C2)n1 | 0.3%
CC(C)C[C@@H]1N[C@H](C(=O)N2CCOCC2)Cc2cn(Cc3ccncc3)c3cccc1c23 | 2.8%[70.6 µM]
CCn1ncc(N2CCC(NC(=O)CCC3CCCC3)CC2)cc1=O | -9.6%
O=C(c1cc(Cl)ccc1F)N1CCC(c2n[nH]c(=O)n2-c2ccccc2)CC1 | -4.8%
(further entries)
SMILES | NPR1 antag
Cc1cnc(C(=O)NC2CC(c3nnc(CO)n3C3CC3)C2)[nH]1 (stereo unspecified) | 25.4%
O=C(c1cc(CC2(NCc3ccccc3Cl)COC2)no1)N1CCCCC1 | -1.5%[70.6 µM]
O=C1CCN(S(=O)(=O)c2ccccc2)CCCC(C(=O)N2CCCCCC2)CCN1 (stereo unspecified) | 0.3%
COCCn1cnc2ccc(OCC3CC3)nc2c1=O | 1.4%[70.6 µM]
Cn1cnnc1CC1CCN(C(=O)c2cc(-c3ccccc3)no2)CC1 | 0.8%
COc1ccc2nc(C[C@@H]3C[C@@H](C(C)C)[C@H](CNC(=O)CCC(=O)O)C=C3C)[nH]c2c1 | -1.1%[70.6 µM]
O=C(O)CSCC(=O)N1CCN(C(=O)c2cnccn2)[C@H](C(=O)N[C@H]2CCCNC2=O)C1 | 0.6%
CCc1ccccc1NC(=O)Cn1c(C)cc2nc3n(c(=O)c21)CCCCC3 | -0.4%
COc1ncc(C(=O)NCc2cccnc2N2CCN(C(C)=O)CC2)cn1 | 0.4%
O=C(NC1CCN(c2cc(-c3cccs3)[nH]n2)C1)c1ccc(F)cc1F (stereo unspecified) | -4.6%
Cc1cc(C(=O)N2CCC3(CC2)CC(N2CCN(c4ccccn4)CC2)CCO3)n[nH]1 (stereo unspecified) | 4.0%
Cn1cccc1C(=O)N1CCC(n2cc(-c3nc(-c4ccccc4)no3)nn2)CC1 | -20.2%
Cc1noc(C)c1CC(=O)N1CC2CC(C1)[C@H]1CCCC(=O)N1C2 (stereo partly specified) | -19.2%
CCc1nc2c(c(-c3ccc(Cl)cc3)n1)CCN(Cc1ccc(F)cc1)CC2 | 3.6%
CCN1CCN(CCNC(=O)C2CCCCC(=O)N2Cc2ccccc2)CC1 (stereo unspecified) | 3.4%
O=C(c1cc(COc2ccc3c(c2)OCO3)[nH]n1)N1CCCC1c1ccccn1 (stereo unspecified) | -0.2%
COc1cccc(CNC(=O)c2cc(-c3ccncc3)cn2C)c1 | -8.0%
Cc1nc2ccccc2n1CCC(=O)N1CCc2[nH]cnc2C1C(=O)O (stereo unspecified) | 14.1%
O=C(NCc1cc2n(n1)CCNC2)C1CCCN(c2ccccn2)C1 (stereo unspecified) | 1.1%
Cc1cccc(C(=O)N2CCC3(CC2)OCC(C(=O)NCC2CCCO2)N3C(=O)c2ccccc2)c1 (stereo unspecified) | 0.1%
CN1C(=O)CS(=O)(=O)C12CCN(C(=O)COc1ccccc1)CC2 | 4.4%
Cc1ccc(-c2noc(C3CCN(C(=O)CC(C)C)CC3)n2)nn1 | 1.4%
Cc1ccc2c(n1)N(C)[C@H](CO)CCN(Cc1ccc(F)cc1)C2 | 0.1%[70.6 µM]
CCOCCNc1nc(N)nc2c1CCN(C(=O)C1(N)CCC1)CC2 | 6.3%

Gathered by group: those above containing a furan ring, fused or not.
SMILES | NPR1 antag
Cc1cccnc1C(C)n1cc(-c2ccccc2-c2ccco2)nn1 (stereo unspecified) | 6.5%
O=C(c1ccco1)N1CCC2(CC1)CC(N(Cc1ccccc1)C1CC1)CCO2 (stereo unspecified) | 5.8%
C=CCN1CCN(C(=O)c2c(C)oc3c2CN(Cc2ccc(F)cc2)CC3)CC1 | 0.4%

Screening data deposited in PubChem by National Center for Advancing Translational Sciences (NCATS).
